Screening data from PubChem BioAssay.
YB-1 expr inh: YB-1 expression inhibition; U2OS, qRT-PCR YB-1 vs CDIP delta delta Cp, 16 h; hits give high values; zero = DMSO, each unit about twofold; delta delta Cp (YB-1 minus CDIP) (concentration not given with the values); hit rate 0.37% among 30,000;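 active = delta delta Cp rounded down to an integer at or above 3, about 3 SD of DMSO wells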;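 also: higher means less YB-1 transcript or more CDIP transcript relative to DMSO; stock transfer was 100 nL into about 100 µL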
MITF inhib: MITF inhibition | TRPM1 promoter luciferase, luminescence, 24 h | inhibition, % (test concentration not listed) | hit rate 0.28% among 37,000;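 active = most replicates at 85% or more, or half of them and the mean; inconclusive = half reach 85% but not the mean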;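 also: human melanocyte line stably carrying TRPM1 promoter luciferase reporter; 0% = vehicle wells and 100% = a positive control; the first replicate is given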
PD-1 reverse act: reversal of PD-1 mediated T-cell inhibition. primary human CD4 T cells, PD-L1 beads, CellTiter-Glo 96 h. activation, % (test concentration not listed). 29,000 tested, under 10 active. AID 2316;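 active = replicate mean of 50% or more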;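 also: 0% = median vehicle wells and 100% = positive control; 100 nL library stock added to about 50 µL; numbers are from one replicate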
Shh pathway inh: Sonic Hedgehog pathway inhibition | Shh-LIGHT2 Gli-luciferase reporter, 30 h | inhibition, % (test concentration not listed) | hit rate 2.1% among 22,000 | AID 2313;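 active = replicate mean of 65% or more; inconclusive = mean lower but half the replicates past it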;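 also: pathway switched on by Shh-conditioned medium diluted 1 in 25 in low serum; 100 nL library stock added to about 40 µL; 0% = median of neutral wells and 100% = positive control level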
An asterisk follows results filed as active; ? = inconclusive; · = not tested or not shown. Not all compounds are listed. The share of hits here may be higher or lower than overall.

smiles,YB-1 expr inh,MITF inhib,PD-1 reverse act,Shh pathway inh
CC(NS(=O)(=O)c1ccccc1)C(=O)Nc1ccccc1Sc1ccccc1 (stereo unspecified),·,11.9,1.3,·
COc1ccc(N2CCN(c3nc(NCCO)nc(N4CCOCC4)n3)CC2)cc1,·,-3.2,1.3,·
C[C@H]1CN([C@@H](C)CO)C(=O)Cc2cc(NC(=O)c3ccncc3)ccc2O[C@@H]1CN(C)Cc1ccc(C(=O)Nc2ccccc2N)cc1,-0.0232,-19.2,0.4,·
Cc1noc(C)c1NC(=O)Nc1ccc2c(c1)C(=O)N([C@@H](C)CO)C[C@H](C)[C@@H](CN(C)Cc1ccc3c(c1)OCO3)O2,0.0113,-6.6,2.8,·
CSc1nnc(-c2ccccc2)n1-c1ccccc1,0.236,-8.7,0.7,-16.1
Cc1noc(C)c1NC(=O)N(C)C[C@@H]1Oc2c(cccc2N(C)C)C(=O)N([C@@H](C)CO)C[C@H]1C,-0.141,-8.3,1.2,-15.5
CSc1sc(C(=O)Sc2ccccc2)c2c1S(=O)(=O)N(C)c1ccccc1-2,0.177,-1.7,-1.2,9.2
COc1cccc(-c2nc(N)nc(SC)c2C#N)c1,-0.147,-11.5,0.8,-33.6
CC(C)=CCC[C@](C)(O[C@@H]1O[C@H](CO[C@@H]2OC[C@H](O)[C@H](O)[C@H]2O)[C@@H](O)[C@H](O)[C@H]1O)[C@H]1CC[C@]2(C)C1[C@H](O)CC1[C@@]3(C)CC[C@H](O[C@@H]4O[C@H](CO)[C@@H](O)[C@H](O)[C@H]4O[C@@H]4O[C@H](CO)[C@@H](O)[C@H](O)[C@H]4O)C(C)(C)C3CC[C@]12C (stereo partly specified),1.03,·,·,-25.0
Cc1ccc(Cl)cc1N(CC(=O)Nc1ccc(C(F)(F)F)cc1)S(C)(=O)=O,·,69.0,-6.2,·
Cc1cc(C)c2c(n1)sc1c(SCC(=O)c3ccc(Br)cc3)ncnc12,-0.126,-16.0,0.6,·
CC(=O)O[C@H]1[C@H](Oc2ccccc2COC(=O)C2(O)C=CCCC2=O)O[C@H](COC(=O)C2(O)C=CCCC2=O)[C@@H](O)[C@@H]1O (stereo partly specified),0.081,·,·,?
CCc1nc(N)nc(N)c1-c1ccc(Cl)cc1,0.152,1.3,·,17.9
Cc1noc(C)c1S(=O)(=O)N(C)C[C@H]1Oc2ccc(NS(=O)(=O)c3cccs3)cc2C(=O)N([C@H](C)CO)C[C@H]1C,-0.372,1.5,-0.2,6.4
COc1ccc(NC(=O)Nc2ccc3c(c2)CC(=O)N([C@@H](C)CO)C[C@H](C)[C@@H](CN(C)C(=O)Nc2ccc(OC)cc2)O3)cc1,-0.67,0.8,1.7,-16.5
Cc1noc(C)c1S(=O)(=O)Nc1ccc2c(c1)C(=O)N([C@@H](C)CO)C[C@@H](C)[C@H](CN(C)C(=O)Nc1cccc3ccccc13)O2,0.0124,-8.3,·,-9.5
Cc1noc(C)c1S(=O)(=O)Nc1ccc2c(c1)CC(=O)N([C@H](C)CO)C[C@@H](C)[C@@H](CN(C)Cc1ccc(Oc3ccccc3)cc1)O2,0.0941,6.6,·,30.9
CC(=O)N1c2ccccc2NC(=O)C1CC(=O)Nc1ccccc1Cl (stereo unspecified),·,37.0,1.0,·
CC(C)NC(=O)Nc1ccc2c(c1)C(=O)N([C@H](C)CO)C[C@H](C)[C@H](CN(C)S(C)(=O)=O)O2,-0.387,1.5,0.0,-12.9
Cc1ccc(S(=O)(=O)Nc2ccc3c(c2)C(=O)N([C@H](C)CO)C[C@@H](C)[C@@H](CN(C)CC2CC2)O3)cc1,-0.122,-2.9,·,-9.3

Exported with values under each structure: part of the list above.
The line under a structure holds: YB-1 expr inh | MITF inhib | PD-1 reverse act | Shh pathway inh
> COc1ccc(NC(=O)Nc2ccc3c(c2)CC(=O)N([C@@H](C)CO)C[C@H](C)[C@@H](CN(C)C(=O)Nc2ccc(OC)cc2)O3)cc1
→ -0.67 | 0.8 | 1.7 | -16.5
> Cc1noc(C)c1S(=O)(=O)Nc1ccc2c(c1)C(=O)N([C@@H](C)CO)C[C@@H](C)[C@H](CN(C)C(=O)Nc1cccc3ccccc13)O2
→ 0.0124 | -8.3 | · | -9.5

The list goes on.
smiles,YB-1 expr inh,MITF inhib,PD-1 reverse act,Shh pathway inh
CN(CC(=O)Nc1ccccc1C#N)S(=O)(=O)c1cc(Cl)ccc1Cl,·,-10.7,-1.1,·
CCOC(=O)CC(Sc1ccccc1N)c1cc(OC)c(OC)c(OC)c1 (stereo unspecified),-0.0754,-2.2,-0.5,8.8
Cc1cc(C(=O)Nc2cccc3c2O[C@@H](CN(C)S(=O)(=O)c2cn(C)cn2)[C@H](C)CN([C@@H](C)CO)C3=O)n(C)n1,-0.415,-6.7,0.2,9.8
C[C@@H]1CN([C@H](C)CO)C(=O)c2cccc(NC(=O)Nc3ccc4c(c3)OCO4)c2O[C@H]1CN(C)S(=O)(=O)c1ccc(F)cc1,-0.125,-0.2,·,4.6
COc1ccc(C(C)(C)C)cc1S(=O)(=O)NCC1CCCO1 (stereo unspecified),·,-4.3,1.1,·
C[C@H]1CN([C@@H](C)CO)C(=O)c2cccc(NC(=O)Nc3cccc4ccccc34)c2O[C@H]1CN(C)Cc1ccccc1,-0.531,2.8,0.2,-14.9
COC(=O)c1c(-c2c(Cl)cccc2Cl)noc1NC(=O)NCc1ccccc1,-0.151,4.6,-1.0,38.1
C[C@H](CO)N1C[C@H](C)[C@H](CN(C)Cc2ccncc2)Oc2c(NS(=O)(=O)c3cn(C)cn3)cccc2C1=O,-0.117,-7.2,4.1,-27.0
C[C@@H]1CN([C@H](C)CO)C(=O)c2cccc(NS(=O)(=O)c3cn(C)cn3)c2O[C@H]1CN(C)Cc1ccc(C(=O)O)cc1,-0.0466,-17.0,1.0,24.8
C[C@@H]1CN([C@@H](C)CO)C(=O)c2cccc(N(C)C)c2O[C@H]1CN(C)C(=O)NC1CCCCC1,-0.0325,-3.9,-0.4,-27.7
CCOC(=O)c1c(NC(=O)CSc2nc(C)c3c(n2)CCCC3)sc2c1CCCC2,·,26.0,-0.8,·
C[C@@H]1CN([C@@H](C)CO)C(=O)c2cccc(NC(=O)NC3CCCCC3)c2O[C@H]1CN(C)CC1CCCCC1,-0.389,30.2,-1.9,5.3
Cc1noc(C)c1NC(=O)Nc1ccc2c(c1)C(=O)N([C@H](C)CO)C[C@@H](C)[C@@H](CN(C)C(=O)Nc1cccc3ccccc13)O2,0.0967,18.9,·,·
C[C@H]1CN([C@@H](C)CO)C(=O)c2cccc(NC(=O)Nc3ccccc3)c2O[C@@H]1CN(C)S(=O)(=O)c1ccc(Cl)cc1,0.564,-12.3,·,12.6
COc1ccc(S(=O)(=O)Nc2ccc3c(c2)C(=O)N([C@H](C)CO)C[C@@H](C)[C@H](CN(C)S(C)(=O)=O)O3)cc1,-0.00441,-18.4,0.6,·
COCCNC(=S)Nc1nc(OC)cc(OC)n1,·,-11.4,0.1,·
C[C@H](CO)N1C[C@H](C)[C@H](CN(C)C(=O)Nc2ccccc2)Oc2ccc(NS(=O)(=O)c3cn(C)cn3)cc2C1=O,0.132,-5.4,-0.1,·
COc1ccc(NC(=O)CSc2ncnc3c2sc2nc(N4CCOCC4)c4c(c23)CC(C)(C)OC4)cc1,·,-10.0,-5.9,·
C[C@H]1CN([C@@H](C)CO)C(=O)c2cccc(NS(=O)(=O)c3cccs3)c2O[C@@H]1CN(C)C,-0.038,-5.7,·,-68.0
CS(=O)(=O)N(CC(=O)Nc1ccc(I)cc1)c1ccc2c(c1)OCCO2,·,-2.1,-0.9,·
O=c1c2c3c(sc2nc2c4ccccc4c(NCCOCCO)nn12)CCCC3,·,-77.7,-6.3,·
C[C@@H]1CN([C@H](C)CO)C(=O)Cc2cc(NC(=O)C3CC3)ccc2O[C@H]1CN(C)C,-0.184,-7.0,1.7,-6.0
CC1(C)C=Cc2c(c3occc3c3oc(-c4ccccc4)cc(=O)c23)O1,0.195,-8.4,1.0,-7.7
O=C(Nc1ccccc1C(=O)NCc1cccnc1)c1cccc([N+](=O)[O-])c1,·,-36.1,0.7,·
COc1ccc(NC(=O)N(C)C[C@H]2Oc3ccc(NC(=O)CCN4CCOCC4)cc3C(=O)N([C@@H](C)CO)C[C@H]2C)cc1,-0.0806,3.8,·,·
COc1ccc(CN(C)C[C@@H]2Oc3ccc(NC(=O)Nc4c(C)noc4C)cc3CC(=O)N([C@H](C)CO)C[C@@H]2C)cc1,-0.325,-9.2,0.3,·
C[C@@H]1CCCCO[C@@H](CN(C)S(C)(=O)=O)[C@@H](C)CN([C@H](C)CO)C(=O)c2cc(NC(=O)c3ccncc3)ccc2O1,-0.101,-8.2,0.5,-21.8
O=C(N=S1CCN(C(=O)c2ccc(Cl)cc2)CC1)c1ccc(Cl)cc1,-0.777,6.2,-1.0,3.8
O=C(Nc1cc(C(F)(F)F)ccc1Br)c1ccccc1F,0.117,2.0,1.7,·
COc1ccc(S(=O)(=O)Nc2cccc3c2O[C@@H](CN(C)C)[C@H](C)CN([C@@H](C)CO)C3=O)cc1,0.339,-3.8,0.4,-16.4
Cn1nc(C(C)(C)C)cc1N,-1.12,0.6,0.0,-19.2
C[C@@H]1CN([C@H](C)CO)C(=O)c2cc(NC(=O)Nc3ccc4c(c3)OCO4)ccc2O[C@@H]1CN(C)S(C)(=O)=O,-0.253,2.2,1.3,-34.5
C[C@@H]1CN([C@@H](C)CO)C(=O)c2cc(NS(=O)(=O)c3cccs3)ccc2O[C@H]1CN(C)Cc1ccc(-c2ccccc2)cc1,-0.00813,11.6,-0.2,-6.2
C[C@@H]1CN([C@H](C)CO)C(=O)c2cc(NS(=O)(=O)c3ccc(F)cc3)ccc2O[C@@H]1CN(C)Cc1ccc(C(=O)O)cc1,-0.631,9.5,0.4,·
Cc1cc(C)c(NC(=O)CSc2nc3c(c(-c4ccco4)c2C#N)CCCC3)c(C)c1,·,15.5,-4.2,·
COc1ccc(CN(C)C[C@@H]2Oc3ccc(NC(=O)c4ccncc4)cc3C(=O)N([C@@H](C)CO)C[C@@H]2C)cc1,-0.52,4.3,-1.1,-4.3
C[C@@H]1CCCCO[C@@H](CN(C)Cc2ccccc2)[C@@H](C)CN([C@H](C)CO)C(=O)c2cc(NC(=O)C3CCCCC3)ccc2O1,-0.259,-10.0,0.3,-5.0
C[C@H](CO)N1C[C@H](C)[C@H](CN(C)Cc2ccc(C(=O)Nc3ccccc3N)cc2)Oc2ccc(NC(=O)Cc3cn(C)c4ccccc34)cc2C1=O,-0.16,44.7,-1.9,·
C[C@@H]1CCCCO[C@@H](CN(C)C(=O)C2CCCCC2)[C@@H](C)CN([C@H](C)CO)C(=O)c2cc(NC(=O)Nc3cccc4ccccc34)ccc2O1,-0.122,23.4,-1.2,·
C[C@H](CO)N1C[C@H](C)[C@@H](CN(C)C)Oc2ccc(NC(=O)Cn3cnnn3)cc2C1=O,0.128,-5.3,1.4,·
COc1ccc(-c2cc(=O)c3c(O)cc(O)cc3o2)cc1,-0.102,-24.1,·,-11.1
C[C@@H]1CN([C@@H](C)CO)C(=O)Cc2cc(NC(=O)CCCCCC(=O)Nc3ccccc3N)ccc2O[C@@H]1CN(C)C(=O)Nc1ccccc1,-0.191,-1.8,1.2,·
C[C@H](CO)N1C[C@H](C)[C@@H](CN(C)C(=O)Nc2ccccc2)Oc2ccc(NC(=O)CCCCCC(=O)Nc3ccccc3N)cc2C1=O,-0.222,-8.4,0.6,·
CC1(C)CC(=O)C=C(Sc2nc3cc(Cl)ccc3s2)C1,0.779,?,-44.6,?
CCn1c(SCC(=O)Nc2cccc(Cl)c2Cl)nc2ccccc2c1=O,0.199,5.7,-0.8,23.9
C[C@@H]1CN([C@H](C)CO)C(=O)c2cccc(N(C)C)c2O[C@H]1CN(C)C,-0.0912,0.5,1.8,-5.8
CNC[C@H]1OCCCC[C@@H](C)Oc2ccc(NS(=O)(=O)c3cn(C)cn3)cc2C(=O)N([C@H](C)CO)C[C@@H]1C,0.199,-6.8,-0.8,-4.4
CC(C)NC(=O)N(C)C[C@@H]1Oc2c(NC(=O)c3cnccn3)cccc2C(=O)N([C@@H](C)CO)C[C@H]1C,-0.337,-7.3,1.4,-10.6
Cc1ccc(S(=O)(=O)Nc2ccc3c(c2)CC(=O)N([C@@H](C)CO)C[C@H](C)[C@H](CN(C)CC2CCCCC2)O3)cc1,-0.309,5.7,-0.9,·
CSc1ccccc1NC(=O)CSc1nnnn1-c1ccccc1F,·,4.0,0.2,·
